Assay outcomes from PubChem.
GIV-Gai inh = inhibitors of GIV GBA-motif binding to rat Galpha-i3; P08753; Galpha-i3/FITC-GIV peptide fluorescence polarization, 90 min; active compounds read low; scaled: aluminum fluoride 0%, vehicle 100%; percent of control (FP), % (concentration not given with the values); 210,000 compounds, 0.42% hits; AID 1224905;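 active = replicate mean at 85% of control or lower, very high polarization wells dropped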;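 note: wells of about 15 µL received 100 nL stock; the first replicate is given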
Target sequence (P08753 whole entry, looked up): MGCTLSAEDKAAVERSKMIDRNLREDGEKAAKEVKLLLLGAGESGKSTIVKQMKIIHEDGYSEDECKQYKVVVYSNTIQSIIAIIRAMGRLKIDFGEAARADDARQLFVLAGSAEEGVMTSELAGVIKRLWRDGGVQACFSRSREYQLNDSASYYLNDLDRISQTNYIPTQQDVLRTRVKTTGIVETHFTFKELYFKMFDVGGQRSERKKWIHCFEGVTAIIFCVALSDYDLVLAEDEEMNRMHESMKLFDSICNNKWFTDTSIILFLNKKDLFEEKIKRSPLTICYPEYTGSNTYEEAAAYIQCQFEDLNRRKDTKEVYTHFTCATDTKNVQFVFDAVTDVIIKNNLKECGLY
Sa growth inh = inhibitors of Staphylococcus aureus growth at 42 °C; S. aureus RN4220 growth, OD600, 20 h; active compounds read low; 170,000 compounds, 0.53% hits; relative growth, % (test concentration not listed); AID 720641;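 active = growth at 42 °C up to 50% and 20 or more points under that at 30 °C, or under 10% at both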;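 note: 300 nL library stock went into each well; scaled to the means of positive and negative controls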
HCMV NEC inh = inhibitors of HCMV UL50-UL53 nuclear egress complex interaction | HTRF UL50-UL53 interaction, normalized percent inhibition | 190,000 compounds, 0.15% hits | inhibition, % (test concentration not listed);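 active = both replicates at 50% or more, plus weaker picks with an unusually low signal ratio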;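 note: stock transfer was 100 nL into about 20 µL; 0% = negative control wells and 100% = wells with untagged competitor protein; inactives centre near -12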
Sa growth inh second temp = further read-out of Sa growth inh, marked with its call; relative growth, %; measured here: growth at 30 °C;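 optical density after 20 h as mean of two plates; 100% = untreated growth and lower means inhibition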
An asterisk follows results filed as active.

Screening Cc1cc(C)nc(SCc2cc(=O)c(OC(=O)c3c(-c4ccccc4Cl)noc3C)co2)n1 returned GIV-Gai inh 109, Sa growth inh 115, HCMV NEC inh -4 and Sa growth inh second temp 98.
Screening CCN(CC)CCN1C(=O)C(O)=C(C(=O)c2sc(C)nc2C)C1c1ccccn1 (stereo not given) returned GIV-Gai inh 105, Sa growth inh 101, HCMV NEC inh -1 and Sa growth inh second temp 100.
For CCOC(=O)c1cnc2c(Cl)cc(Cl)cc2c1Nc1ccccc1OC the results were GIV-Gai inh 106, Sa growth inh 111, HCMV NEC inh -35 and Sa growth inh second temp 88.
`CCSc1nn(CC(=O)Nc2ccccc2F)c(N)c1S(=O)(=O)c1ccccc1` gave GIV-Gai inh 107 and HCMV NEC inh 14.
Screening CCCC(=O)N1c2ccccc2-c2nnc(SC)nc2OC1c1sccc1C (stereo not given) returned GIV-Gai inh 98, Sa growth inh 112, HCMV NEC inh -97 and Sa growth inh second temp 84.
For O=C(CSc1nnc(-c2ccco2)n1-c1ccccc1)NC(=O)c1ccccc1 the results were Sa growth inh 85, HCMV NEC inh -24 and Sa growth inh second temp 93.
`O=C(c1ccc(S(=O)(=O)Nc2ccccc2Cl)cc1)N1CCCC1` gave Sa growth inh 97, HCMV NEC inh -14 and Sa growth inh second temp 88.
For CCc1nn(-c2ccccc2)c2nc(-c3ccccc3)nc(SCC(=O)NC(C)(C)C)c12 the results were GIV-Gai inh 98 and HCMV NEC inh 5.
Screening COc1ccc2nc(NC(=O)c3ccccc3NS(=O)(=O)c3cccs3)sc2c1 returned Sa growth inh 57, HCMV NEC inh -8 and Sa growth inh second temp 52.
Screening O=C1Nc2ccccc2C1=Nc1cccc(C(F)(F)F)c1 returned Sa growth inh 62, HCMV NEC inh -89 and Sa growth inh second temp 15.
`Cc1cccc(NC(=O)C(=O)NCC(c2ccc3c(c2)OCO3)N2CCOCC2)c1C` (stereo not given) gave GIV-Gai inh 99, Sa growth inh 87 and Sa growth inh second temp 92.
For CCC(=O)n1c(=O)oc2ccc(Cl)cc21 the results were GIV-Gai inh 97, Sa growth inh 107, HCMV NEC inh -14 and Sa growth inh second temp 89.

A portion of the results above, for reference:
Screening O=C1Nc2ccccc2C1=Nc1cccc(C(F)(F)F)c1 returned Sa growth inh 62, HCMV NEC inh -89 and Sa growth inh second temp 15.
`Cc1cccc(NC(=O)C(=O)NCC(c2ccc3c(c2)OCO3)N2CCOCC2)c1C` (stereo not given) gave GIV-Gai inh 99, Sa growth inh 87 and Sa growth inh second temp 92.
For CCC(=O)n1c(=O)oc2ccc(Cl)cc21 the results were GIV-Gai inh 97, Sa growth inh 107, HCMV NEC inh -14 and Sa growth inh second temp 89.

Next part
For c1cncc(-c2nc3c4ccccc4nc(NCCCN4CCCCCC4)n3n2)c1 the results were GIV-Gai inh 109, Sa growth inh 103 and Sa growth inh second temp 93.
Nc1ccccc1C(O)(Cc1ccccc1)c1ccccc1 (stereo not given) was read as GIV-Gai inh 96, Sa growth inh 94, HCMV NEC inh -16 and Sa growth inh second temp 88.
`O=C(Nc1ccc2c(c1)OCCO2)c1cccnc1Sc1ccccc1` gave GIV-Gai inh 103, Sa growth inh 101, HCMV NEC inh -19 and Sa growth inh second temp 86.
For COCCCNC(=O)C1CCCN(c2nn3cc(-c4ccc(C)cc4)nc3s2)C1 (stereo not given) the results were GIV-Gai inh 106, Sa growth inh 110 and Sa growth inh second temp 69.
For COc1ccc(CNC(=O)c2ccc3nc(N4CCOCC4)sc3c2)cc1 the results were GIV-Gai inh 108, Sa growth inh 96 and Sa growth inh second temp 92.
COCCCNC1CCOc2ccccc21 (stereo not given) was read as GIV-Gai inh 101, Sa growth inh 110, HCMV NEC inh -19 and Sa growth inh second temp 83.
Screening COc1cc(NC(=O)c2cc3nc(-c4ccco4)cc(C(F)(F)F)n3n2)c(OC)cc1Cl returned GIV-Gai inh 103 and HCMV NEC inh -7.
`CC(=O)CSc1nc2ccc(Nc3nc(N4CCOCC4)nc(N4CCOCC4)n3)cc2s1` gave GIV-Gai inh 105 and HCMV NEC inh -12.
N#Cc1ccccc1NC(=O)c1ccc(N2C(=O)CCC2=O)cc1 was read as GIV-Gai inh 96, Sa growth inh 91, HCMV NEC inh -19 and Sa growth inh second temp 84.
`CCC(C)n1[nH]c(=O)c2c(C)cc(=O)[nH]c21` (stereo not given) gave GIV-Gai inh 109 and HCMV NEC inh -28.
`CCOc1ccc(NC(=O)CN2C(=O)C=C(CC(=O)OC)Nc3ccccc32)cc1` gave GIV-Gai inh 110 and HCMV NEC inh -37.
`CCCc1cc(=O)n2[nH]c(C)c(-c3ccc(F)cc3)c2n1` gave GIV-Gai inh 98 and HCMV NEC inh -31.
Screening CCCS(=O)(=O)c1ncc(Cl)c(C(=O)Nc2c(C(=O)c3ccccc3)oc3ccccc23)n1 returned GIV-Gai inh 103, Sa growth inh 107, HCMV NEC inh 3 and Sa growth inh second temp 90.
For N#Cc1ccc(CCC(=O)c2cccs2)cc1 the results were Sa growth inh 93, HCMV NEC inh 21 and Sa growth inh second temp 98.
Screening N#Cc1ccccc1S(=O)(=O)N1CCCC(c2nc3c(nnn3Cc3cccc(Cl)c3)c(=O)[nH]2)C1 (stereo not given) returned GIV-Gai inh 103, Sa growth inh 99, HCMV NEC inh -22 and Sa growth inh second temp 86.
CC(=O)Nc1cc(C(=O)N2CCN(c3ccccc3)CC2)ccc1Sc1ccc(C)cc1 was read as GIV-Gai inh 105, Sa growth inh 108, HCMV NEC inh 2 and Sa growth inh second temp 91.
S=C(NCc1ccco1)NC1OCCOC1NC(=S)NCc1ccco1 (stereo not given) was read as Sa growth inh 111, HCMV NEC inh 6 and Sa growth inh second temp 105.
For Cn1cnnc1Sc1ccc(Cl)cc1NC(=O)c1ccc(C#N)cc1 the results were Sa growth inh 96, HCMV NEC inh -8 and Sa growth inh second temp 95.
For Cn1c(=O)c(=O)n(C)c2cc(C(=O)NCc3ccccc3Cl)ccc21 the results were GIV-Gai inh 101, Sa growth inh 107, HCMV NEC inh -22 and Sa growth inh second temp 91.
For Cc1cc(NC(=O)c2cc(C3CC3)on2)no1 the results were GIV-Gai inh 99, Sa growth inh 105, HCMV NEC inh 6 and Sa growth inh second temp 93.
Screening Nc1ccc(N2CCOCC2)cc1 returned Sa growth inh 90, HCMV NEC inh -17 and Sa growth inh second temp 87.
`CC1CCCN(c2nc3ncnc(SCC(=O)NC(C)CCc4ccccc4)c3s2)C1` (stereo not given) gave GIV-Gai inh 105 and HCMV NEC inh -22.
Screening O=C(COc1ccc2ccc(=O)oc2c1)N1CCc2ccccc21 returned Sa growth inh 92, HCMV NEC inh -7 and Sa growth inh second temp 96.
`CCOC(=O)C1CCN(c2nc3cc(Br)ccc3s2)CC1` gave GIV-Gai inh 109, Sa growth inh 95 and Sa growth inh second temp 88.
Cc1ccc(C(=O)Nc2ccccc2N2CCCCC2)c(C)c1 was read as GIV-Gai inh 103, Sa growth inh 104, HCMV NEC inh 2 and Sa growth inh second temp 104.
Clc1ccc(-c2nnn3c2nc(NC2CCCCC2)c2ccccc23)cc1 was read as GIV-Gai inh 103, Sa growth inh 109, HCMV NEC inh -24 and Sa growth inh second temp 87.
For CCOC(=O)c1c(S(=O)(=O)NCc2ccccc2)c(-c2ccccc2)n(-c2ccccc2)c1C the results were GIV-Gai inh 109, Sa growth inh 123, HCMV NEC inh -26 and Sa growth inh second temp 88.
COC(=O)c1ccccc1NC(=O)Cn1c(=O)n(CCCC(=O)NCc2ccccc2Cl)c(=O)c2ccccc21 was read as GIV-Gai inh 105, Sa growth inh 96, HCMV NEC inh -1 and Sa growth inh second temp 102.
For COc1ccc(OC)c(NC(=O)Cn2cc(C(=O)c3cccs3)c3ccccc32)c1 the results were GIV-Gai inh 107, Sa growth inh 93, HCMV NEC inh -21 and Sa growth inh second temp 81.
For N/C(CCn1nnc2ccccc21)=N\O the results were GIV-Gai inh 98, Sa growth inh 94, HCMV NEC inh -21 and Sa growth inh second temp 88.
CCOc1cc(N2CCOCC2)c(OCC)cc1NC(=O)c1cc(-c2ccco2)nc2ccccc12 was read as Sa growth inh 79, HCMV NEC inh -7 and Sa growth inh second temp 77.
`CC1=C(C(=O)Nc2cccc(C(F)(F)F)c2)C(c2ccc3c(c2)OCO3)NC(=O)N1` (stereo not given) gave Sa growth inh 126, HCMV NEC inh -27 and Sa growth inh second temp 85.
`C[N+]1(CC(O)COc2ccccc2F)CCOCC1` (stereo not given) gave Sa growth inh 120, HCMV NEC inh 4 and Sa growth inh second temp 96.
`O=C(Cc1ccccc1)Nc1ccc(N2CCCC2=O)cc1` gave GIV-Gai inh 103, Sa growth inh 91, HCMV NEC inh -16 and Sa growth inh second temp 102.
COc1ccccc1NCC(=O)N/N=C/C=C1/N(C)c2ccccc2C1(C)C was read as Sa growth inh 107, HCMV NEC inh -42 and Sa growth inh second temp 79.
Screening O=C(NC1CC1)C1CCCN(c2nccn3nc(-c4cccc(Cl)c4)cc23)C1 (stereo not given) returned GIV-Gai inh 115 and HCMV NEC inh -13.

Part of the list above in order of length of the SMILES, lowest first.
Screening Nc1ccc(N2CCOCC2)cc1 returned Sa growth inh 90, HCMV NEC inh -17 and Sa growth inh second temp 87.
For COc1ccc(CNC(=O)c2ccc3nc(N4CCOCC4)sc3c2)cc1 the results were GIV-Gai inh 108, Sa growth inh 96 and Sa growth inh second temp 92.
`CC1CCCN(c2nc3ncnc(SCC(=O)NC(C)CCc4ccccc4)c3s2)C1` (stereo not given) gave GIV-Gai inh 105 and HCMV NEC inh -22.

(next part)
CNC(=S)N(CCN1CCOCC1)Cc1cc2cc(C)c(Cl)cc2[nH]c1=O was read as GIV-Gai inh 106, Sa growth inh 96, HCMV NEC inh -22 and Sa growth inh second temp 93.
For COc1ccc(CC(=O)Nc2cccc3nsnc23)cc1OC the results were GIV-Gai inh 102 and HCMV NEC inh -72.
C/C(=C\C(=O)C(F)(F)F)NCC1CCCO1 (stereo not given) was read as Sa growth inh 99, HCMV NEC inh -16 and Sa growth inh second temp 90.
COc1ccc(C(=O)C[N+]2=C(C)c3ccc(C)n3CC2)cc1 was read as GIV-Gai inh 105, Sa growth inh 78, HCMV NEC inh -53 and Sa growth inh second temp 88.
Screening CS/C(Nc1cccnc1)=C(/C#N)c1ccccn1 returned GIV-Gai inh 105, Sa growth inh 94, HCMV NEC inh -30 and Sa growth inh second temp 73.
For Cc1cc(SCC(N)=O)nc2ccccc12 the results were GIV-Gai inh 105, Sa growth inh 87, HCMV NEC inh -39 and Sa growth inh second temp 86.
Cc1cccc(N2CCN(c3c(CN4CCCC4)c(=O)oc4ccccc34)CC2)c1C was read as GIV-Gai inh 103, Sa growth inh 108, HCMV NEC inh -2 and Sa growth inh second temp 91.
For CCOC(=O)c1[nH]c2c([N+](=O)[O-])cc(C)cc2c1CCN1C(=O)c2ccccc2C1=O the results were GIV-Gai inh 104 and HCMV NEC inh -8.
Screening O=C(/C=C1\NC2(CCCC2)Cc2ccccc21)N1CCOCC1 returned GIV-Gai inh 97, Sa growth inh 120, HCMV NEC inh -30 and Sa growth inh second temp 88.
`Cc1ccc(C)c(N2CCN(C(=O)Cn3nc(C)c4sc5ccccc5c4c3=O)CC2)c1` gave GIV-Gai inh 99, Sa growth inh 130, HCMV NEC inh -10 and Sa growth inh second temp 87.
Screening Cc1ccc(/C=C/C(=O)N(Cc2nc3ccccc3c(=O)[nH]2)CC2CCCO2)o1 (stereo not given) returned Sa growth inh 81, HCMV NEC inh -36 and Sa growth inh second temp 95.
For Nc1c(S(=O)(=O)c2ccccc2)c2nc3ccccc3nc2n1C1CC1 the results were Sa growth inh 92, HCMV NEC inh -11 and Sa growth inh second temp 94.
For C(=NCc1ccccc1)c1cn(-c2ccccc2)nc1-c1cccs1 the results were GIV-Gai inh 101, Sa growth inh 94 and Sa growth inh second temp 50.
Cc1ccc(C)c(N2CCN(c3cnc4cc(C)c(C)cc4n3)CC2)c1 was read as GIV-Gai inh 102 and HCMV NEC inh -15.
For COc1ccccc1CNC(=O)c1cn(C)c2ccc(S(=O)(=O)N3CCC(C)CC3)cc2c1=O the results were GIV-Gai inh 99, Sa growth inh 100, HCMV NEC inh -28 and Sa growth inh second temp 91.
Cc1ccc(C(=O)Nc2ccc(S(=O)(=O)N3CCC(c4nc5ccccc5s4)CC3)cc2)cc1 was read as GIV-Gai inh 99, Sa growth inh 85, HCMV NEC inh -7 and Sa growth inh second temp 89.
For O=C(O)CCCN=C1NC(=O)CC(=O)N1 the results were Sa growth inh 97, HCMV NEC inh 1 and Sa growth inh second temp 96.
`COc1ccc(C=Nc2nonc2N)cc1` gave Sa growth inh 102, HCMV NEC inh -17 and Sa growth inh second temp 84.
For N#CC1(NCCNC2(C#N)CCCCC2)CCCCC1 the results were Sa growth inh 100, HCMV NEC inh 9 and Sa growth inh second temp 92.
Screening Cc1ccc(S(=O)(=O)NN(C)C)cc1 returned GIV-Gai inh 99, Sa growth inh 50, HCMV NEC inh -5 and Sa growth inh second temp 50.
`CC(NC(=O)c1ccccc1)c1ccc(F)cc1` (stereo not given) gave Sa growth inh 106, HCMV NEC inh 2 and Sa growth inh second temp 88.
